Compound activity (PubChem BioAssay)
PrP 5UTR inh – inhibition of PrP 5' UTR reporter expression. AID 488862. cell-based PrP 5' UTR mRNA reporter, plate reader. hit rate 0.35% among 340,000. inhibition, % (test concentration not listed);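 active = every replicate at 50% or more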;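 also: 0 = median of the neutral control wells; tested in H4 reporter cells; numbers are from one replicate; inactives centre near -14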
Mtb hypoxia rep – Mtb hypoxia fluorescent reporter inhibition; M. tuberculosis hypoxia-regulated fluorescent reporter, fluorescence; hit rate 0.1% among 300,000; fluorescence inhibition, % (concentration not given with the values); AID 1159583;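 active = 35 to 45% if threefold the growth effect, above 45% if 1.5-fold the growth effect; inactive = the rest, general growth blockers included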;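 also: wells of about 50 µL received 100 nL stock; 0% = vehicle wells and 100% = reference inhibitor wells; whole bacteria with a GFP reporter of the hypoxia response; strong numbers were not always called active; many hits fall short of the cut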
Autofluor counter – flagged as autofluorescent in microsphere protease counterscreen. fluorescence intensity (no concentration beside the values). hit rate 3.1% among 360,000. AID 624483. compound autofluorescence counterscreen, microsphere flow cytometry; stronger effect = higher value;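 active = at least 3 SD above the mean of all compounds, about 16000 in these data; inconclusive = too few beads counted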;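 also: 100 nL of 1 mM stock went into each well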
Sa RN4220 lethal – S. aureus RN4220 growth inhibition; OD600, 16 h; inhibition, % (test concentration not listed); hit rate 0.33% among 330,000;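 active = z-score of -3 or lower and OD600 up to 0.18 on both plates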;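 also: plate controls were untreated cells for no effect and reference antibiotic for full effect; stock transfer was 100 nL into about 80 µL; one replicate is shown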
BJeLR viability – kills HRASV12-expressing BJeLR cells. hit rate 0.17% among 300,000. inhibition, % (concentration not given with the values). BJeLR (HRASV12) viability, CellTiter-Glo ATP luminescence, 48 h; reference of the scale not given here;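 active = replicate mean above 50%; inconclusive = above 50% but judged a plate artefact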;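 also: 50 nL library stock added to about 25 µL; numbers are from one replicate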
ugtP null kill – growth inhibition of S. aureus ugtP deletion strain | S. aureus RN4220 ugtP deletion, OD600 growth, 16 h; some inactives read as strong as hits | growth inhibition, % (test concentration not listed) | hit rate 0.54% among 330,000 | AID 1259309;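 active = z-score under -3 and OD600 up to 0.15 on both plates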;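 also: plate controls were untreated wells for no effect and antibiotic for full effect; wells of about 80 µL received 100 nL stock; the first replicate is given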
Mtb hypoxia rep growth – further read-out of Mtb hypoxia rep, marked with its call; growth inhibition, %; measured here: M. tuberculosis growth (absorbance);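 0% = vehicle and 100% = reference antibiotic; read after six days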
Active calls of the source: *; ? = inconclusive; nt = no result given.

Preview:
Sequence of screens – PrP 5UTR inh	Mtb hypoxia rep	Mtb hypoxia rep growth	Autofluor counter	Sa RN4220 lethal	BJeLR viability	ugtP null kill
CCN1CSC(=S)N(Cc2ccc(OC)cc2)C1
→ -35	15	13	3298	16	-1	1
CCC1=C(OC(=O)N(CC)CC)N2C(=O)OC(=NCc3ccccc3)[C@]2(C)[C@H]2C1=CC[C@H]1C(=O)N(CC(=O)OC)C(=O)[C@H]12
→ -6	nt	nt	2908	nt	0	nt
COC(=O)c1c(C(=O)OC)c2n(c1C)Cc1ccccc1C2
→ -18	-4	13	22637*	2.2	6	-3

The list itself, previewed entries included:
Sequence of screens – PrP 5UTR inh	Mtb hypoxia rep	Mtb hypoxia rep growth	Autofluor counter	Sa RN4220 lethal	BJeLR viability	ugtP null kill
CCN1CSC(=S)N(Cc2ccc(OC)cc2)C1
→ -35	15	13	3298	16	-1	1
CCC1=C(OC(=O)N(CC)CC)N2C(=O)OC(=NCc3ccccc3)[C@]2(C)[C@H]2C1=CC[C@H]1C(=O)N(CC(=O)OC)C(=O)[C@H]12
→ -6	nt	nt	2908	nt	0	nt
COC(=O)c1c(C(=O)OC)c2n(c1C)Cc1ccccc1C2
→ -18	-4	13	22637*	2.2	6	-3
Cc1c(C)n(C)c2ccc(C(=O)N3CCN(c4ccccn4)CC3)cc12
→ -2	-15	4	3246	8.6	3	-11
O=C(NN=C1CCCC1)c1cc(O)cc(O)c1
→ -20	-9	-7	6170	2.0	2	2
CCC(=NNC(=O)c1nnn(-c2nonc2N)c1-c1cccc(OC)c1)c1ccc(C)cc1
→ nt	3	-5	nt	4.0	nt	7
CC(C)[N+]1=C2C=CC=CC=C2SC12C([N+](=O)[O-])=CC(=[N+]([O-])[O-])C=C2[N+](=O)[O-] (configuration not stated)
→ -23	12	7	2794	7.5	13	4
CC12CCC(=O)N1C(C(=O)Nc1ccc(F)cc1)CS2 (configuration not stated)
→ -7	9	0	5458	2.3	-4	1
COc1ccc(NS(=O)(=O)c2ccc(N3CCOCC3)c(NC(=O)c3ccc(OC)cc3)c2)cc1
→ -12	5	6	2555	3.6	0	-1
CCN(CC)CCn1c(NCc2cccc(OC)c2)nc2ccccc21
→ -16	9	7	4253	3.5	9	3
O=C(COc1ccc(Br)cc1)N1CCC(c2ccccc2)C1 (configuration not stated)
→ 8	nt	nt	2327	4.5	3	4
O=C(COc1ccccc1)Nc1nc2c(s1)CCCC2
→ -47	7	6	3478	-1.0	-6	11
CCOc1ccccc1NC(=O)c1nc(S(=O)(=O)Cc2cccc(C)c2)ncc1Cl
→ -13	nt	nt	4273	nt	25	nt
O=C(CCNC(=O)c1ccc(Br)o1)NCc1ccc(Cl)cc1
→ -11	3	0	20990*	2.8	-3	4
CCN1CCN(C(=S)Nc2ccc(Cl)cc2Cl)CC1
→ 3	10	12	4589	-1.1	11	0
O=C(CSc1nnc(-c2ccco2)n1-c1ccccc1Cl)Nc1cccc(C(=O)O)c1
→ -15	4	3	5867	4.1	1	4
O=C(NNC(=O)C1[C@H]2CCCC[C@@H]12)c1ccc(=O)oc1 (some centres not stated)
→ -15	-8	-9	3279	-3.9	1	-7
Cc1nc2ccccc2c(=O)n1-c1ccc(F)cc1
→ -41	4	8	8225	1.7	-5	-1
NC(=O)NC1(C(=O)O)CCCC1
→ -17	-8	18	4136	1.8	nt	1
C/C(=N\Nc1cc(Cl)nc(C)n1)c1ccc(Cl)c(Cl)c1
→ -12	nt	nt	10720	nt	1	nt
COC(=O)CCC(=O)NNC(=O)CCC(=O)Nc1cccc(Cl)c1C
→ -9	-7	4	2093	-4.2	1	-5
Cc1nnc(NC(=O)c2ccc(F)c(S(=O)(=O)N3CCCCC3)c2)s1
→ -24	1	-2	5503	-1.9	12	7
CC(=O)c1sc2c(c1N)c(=O)[nH]c(=O)n2-c1ccccc1
→ -17	6	-7	3790	0.1	-9	16
Cc1cc(Cl)ccc1NC(=S)NCc1ccc(Cl)cc1
→ -27	nt	nt	4148	-6.0	10	-8
O=C(CC(c1ccccc1)c1ccccc1)Nc1ccc(C(=O)O)cc1
→ -22	6	5	3959	3.3	-2	19
COc1ccccc1C1SCCN1S(=O)(=O)c1cccc(C(F)(F)F)c1 (configuration not stated)
→ -8	6	4	6410	17	3	53
CC12CCC(C(=O)N(NC(=O)c3ccccc3Cl)C1=O)C2(C)C (configuration not stated)
→ -19	13	-7	2620	3.7	9	6
O=C(Cc1ccc(NS(=O)(=O)c2ccc(Cl)c(Cl)c2)cc1)NCCN1CCOCC1
→ -44	4	-1	?	3.0	nt	-1
CCC1Oc2ccc(C)cc2N(CC(=O)NCCCN2CCN(Cc3ccccc3)CC2)C1=O (configuration not stated)
→ -10	3	3	6955	-1.8	-4	-2
CCN(CC(=O)Nc1ccc(NC(C)=O)cc1)C(=O)c1ccc(COc2ccc(C(C)(C)C)cc2)cc1
→ -15	6	3	3637	-6.2	nt	-1
COc1cc(Nc2ncnc(N)n2)cc(OC)c1OC
→ -14	14	7	6272	1.6	5	4
O=S(=O)(NCc1cccnc1)c1ccc(Cl)nc1
→ -6	9	4	2516	5.0	-4	9
Cc1cc(C)nc(SCC(=O)Nc2ccc(S(=O)(=O)NC(C)(C)C)cc2)n1
→ -10	8	1	16067	4.3	15	7
O=C(NC1CCCCC1)c1cc(-n2cnnc2)ccc1Cl
→ -14	10	7	5431	2.9	-5	4
COc1ccc(N(CCCN2C(=O)c3cccc4cccc(c34)C2=O)C(=O)c2cccs2)cc1
→ -22	8	4	2501	3.7	6	8
O=C(NCCc1ccccc1)C(=O)c1c[nH]c2ccccc12
→ -33	nt	nt	4664	nt	-11	nt
Cc1ccc(N(C)S(=O)(=O)c2ccc(C)cc2)cc1
→ -27	6	10	24242*	13	-13	-4
COc1cccc(C(=O)OCC(=O)c2ccc(S(=O)(=O)N3CCCCC3)cc2)c1OC
→ -15	-8	-5	5949	-3.3	nt	3
CC(Sc1nnnn1-c1ccccc1)C(=O)NC1CCCC1 (configuration not stated)
→ -6	2	9	?	-4.0	nt	-4
O=C(Nc1c(C(=O)N2CCCCC2)cnn1-c1ccccc1)c1ccco1
→ 3	10	2	10841	1.6	-3	1
CCN(C(=O)c1cn(C)c(=O)c2ccccc12)c1ccccc1F
→ -24	6	10	3954	2.3	-3	9
Cc1cc(-c2ccccc2)n2ncc(-c3ccccc3)c2n1
→ -24	2	5	2253	-9.0	0	4
Cc1cccc(Cn2c(NCC(C)O)nc3c2c(=O)n(C)c(=O)n3C)c1 (configuration not stated)
→ -10	nt	nt	2089	6.0	9	-2
CCN(C(=O)CSc1nc2scc(-c3ccccc3)c2c(=O)n1C)C1CCS(=O)(=O)C1 (configuration not stated)
→ 5	4	10	4029	3.2	nt	-1
CCc1cc2c(=O)c(-c3nc4ccccc4n3C)c(COCC(=O)O)oc2cc1OC(=O)C(C)(C)C
→ -17	0	1	17668*	5.9	-6	8
CCc1cc(N2CCOCC2)cc2c1[nH]c1ccccc12
→ -21	5	-3	17063*	2.1	nt	-13
O=C(NCC(F)(F)F)c1ccc(S(=O)(=O)Nc2ccccc2N2CCCC2)cc1
→ 4	-2	2	3590	0.6	nt	-6
CS(=O)(=O)N1CCN(c2ccccc2NC(=O)C(c2ccccc2)c2ccccc2)CC1
→ -30	6	13	10679	6.1	3	2
COc1ccc(C(=O)NCCNc2nc3ccc(C)cc3cc2C#N)cc1OC
→ -2	15	8	4325	8.7	-6	7
CCCCCc1nnc(NC(=O)Cn2cnc3ccccc3c2=O)s1
→ -16	-11	0	2347	-3.0	1	-1

More results follow:
Sequence of screens – PrP 5UTR inh	Mtb hypoxia rep	Mtb hypoxia rep growth	Autofluor counter	Sa RN4220 lethal	BJeLR viability	ugtP null kill
O=C(NC(=S)Nc1ccc(Br)cc1)C1CCC1
→ -24	16	21	?	-5.6	-8	33
O=C(CSc1nnc(-c2cccnc2)n1-c1ccccc1)NCc1ccc2c(c1)OCO2
→ -19	nt	nt	4005	-0.5	3	6
COc1ccccc1NC(=O)COC(=O)C1CC2CCCC(C1)C2=O (configuration not stated)
→ -7	13	6	3618	6.4	nt	1
CC(C)CCNC(=O)C(=O)NCC1OCCCN1S(=O)(=O)c1cccs1 (configuration not stated)
→ -5	7	2	5671	1.7	-3	3
COc1ccc(C)cc1NC(=O)c1cc(S(=O)(=O)N2CCC3(CC2)OCCO3)ccc1F
→ 8	8	0	5124	-0.6	15	-3
CCOC(=O)c1[nH]cnc1C(=O)NC(C)C
→ -11	nt	nt	4830	1.7	-6	-5
O=C(c1ccc(Cl)cc1)N1CCCC(C(=O)N2CCc3ccccc3C2)C1 (configuration not stated)
→ -54	-10	2	?	-2.0	2	-3
Cc1onc(-c2c(Cl)cccc2Cl)c1C(=O)c1ccc(F)cc1
→ nt	15	2	5847	9.2	5	8
C=CCOc1cccc(C=NNC(=O)CC(=O)NC2CCCCC2)c1
→ nt	3	0	nt	1.4	nt	4
COc1ccccc1N1CCN(Cc2ccccc2F)CC1
→ -11	14	12	5507	11	5	-5
Clc1ccc(-c2nnc(-c3ccccc3)c(N3CCSCC3)n2)cc1
→ -30	15	11	3718	-4.0	-1	2
COc1ccc(CN(C)C(c2ccccc2)c2nnnn2-c2ccccc2C)c(OC)c1C (configuration not stated)
→ -8	nt	nt	2898	11	-10	37
CSc1ccccc1C(=O)N1CCc2ccccc2C1
→ 0	-5	6	4177	7.8	-3	5
C/C(=N\S(=O)(=O)c1ccc(C)cc1)Nc1cc(C(C)C)c(O)cc1C
→ -9	-2	-3	2429	2.8	0	0
COc1ccc(C(=O)/C=C/C(=O)N(CC(=O)NC2CCCCC2)CC2CCCO2)c(O)c1 (configuration not stated)
→ -22	9	10	3988	1.7	49	17
COc1cccc2cc(C(=O)N3CCN(C(=O)c4ccco4)CC3)c(=O)oc12
→ -8	-3	1	10104	3.9	9	4
CC(C)N(C(=O)Cn1c(=O)oc2ccccc21)c1ccccc1
→ 0	6	-10	nt	1.0	-7	5
COc1ccccc1NC(=O)c1sc2ncn(CC(=O)Nc3ccccc3)c(=O)c2c1C
→ 4	-11	-5	3522	-6.1	-1	-7
Cc1ccc(C2=NOC(C)(c3sc(-c4ccc(Cl)cc4)nc3C)C2)cc1 (configuration not stated)
→ 42	20	8	2969	-3.7	-3	14
O=C(Cc1ccccc1)Nc1ccc(NC(=O)Cc2ccccc2)c(Cl)c1
→ -4	8	-13	3863	1.6	-3	8
Cc1cc(NC(=O)CN2CCN(c3ccccc3O)CC2)no1
→ -13	1	-3	17083*	0.7	5	7
Cc1ccc(SCc2noc(C(=O)NC(C)C)c2C(=O)O)cc1C
→ -11	-4	0	3370	9.4	6	5
Cc1ccc(S(=O)(=O)N2C(c3cccc(Cl)c3)CC=C(C(=O)O)C2c2ccc(F)cc2)cc1 (configuration not stated)
→ nt	3	1	nt	24	nt	46
CCOC(=O)c1c(NC(=O)CSc2nnc(-c3cccnc3)o2)sc(C(C)=O)c1C
→ -27	4	-1	3731	2.7	-1	-12
COc1ccc(NC(=O)COC(=O)c2ccc(S(=O)(=O)N3CCCC3)cc2)cc1OC
→ -30	-9	-3	8491	3.6	nt	3
CCOc1c2ccc(C(=O)NCc3ccc(OC(F)(F)F)cc3)cc2nn1C
→ -5	17	8	3594	7.2	7	14
Cc1ccc(NC(=O)c2sc3nc[nH]c(=O)c3c2C)c(C)c1
→ -14	nt	nt	3661	11	-5	0
COc1ccc(OC)c(/C=C/C(=O)Oc2ccc(C(C)=O)cc2)c1
→ -22	18	7	4081	15	-7	3
COc1cc2c(cc1OC)C(C(=O)NC1CC1)C1c3ccccc3CCN1C2=O (configuration not stated)
→ -8	14	8	4589	6.7	4	10
O=C(NP(=O)(N1CCCC1)N1CCCC1)C1=C(N2CCOCC2)/C(=C/c2cccc([N+](=O)[O-])c2)CC1
→ -16	13	6	2208	4.3	8	8
CC(C)Cn1c(N)c(C(=O)CSc2ccccc2)c(=O)n(C)c1=O
→ -28	7	-2	8702	5.9	-2	2
O=C(NC1CCC(O)CC1)C1CCN(S(=O)(=O)c2c(Cl)cccc2Cl)CC1 (configuration not stated)
→ -25	4	2	6214	2.8	nt	8
O=C(CNC(=O)c1cccs1)OCc1ccc(Cl)cc1
→ -13	0	9	3688	0.3	-8	2
